Compound activity: PubChem BioAssay, Fisher Drug Discovery Resource Center
NPYLR7 agonist: activates Aedes aegypti NPYLR7 receptor; activation, % at 10 µM; actives 0.15% (n = 270,000); HEK293T NPYLR7/Galpha15, GCaMP6s calcium fluorescence; in the data active means activation above about 40%;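 further: 0% = vehicle and 100% = reference agonist at the receptor; some compounds past the cut are filed as inactive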
NPYLR7 agonist max-min: recorded beside NPYLR7 agonist, whose call it bears; activation, %; measured here: Max-Min RFU normalised activation; some inactives read as strong as hits;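 span of the calcium signal over five minutes; 0% = vehicle and 100% = native peptide agonist; compound fluorescence can raise it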
* hit, by the source's call; & = joins results of further samples.

SMILES	NPYLR7 agonist	NPYLR7 agonist max-min
CC1(C(=O)NS(C)(=O)=O)CCN1C(=O)CC(c1ccccc1)c1ccccc1 (centres undefined)	2	1
COc1cccc2sc(N(Cc3cccnc3)C(=O)c3ccc(S(=O)(=O)N(C)C)cc3)nc12	-4	1
COC(=O)c1sc(N2C(=O)C(=O)C(=C(O)c3ccc(C)cc3)C2c2ccccc2F)nc1C (centres undefined)	2	1
CS(=O)(=O)Nc1cc(-c2ccccc2)nn1C1CCS(=O)(=O)C1 (centres undefined)	0	-1
CC(C)N(CC1CCC(=O)N1)C(=O)c1ccc2nc(Cc3cccc(Cl)c3)oc2c1 (centres undefined)	15	7
CC1CC(c2ccc(F)cc2)CN1C(C)C(=O)Nc1ncccn1 (centres undefined)	2&7	1&7
COCc1nn2c(nnc3c(=O)n(NC(=O)C(C)C)ccc32)c1-c1ccc(F)cc1	3	0
Cc1ccc2nc(-c3ccccc3F)c(NC3CCCCC3)n2c1	3&-3	13&-4
COc1ccc(CCn2c(-c3cc(C(F)(F)F)ccc3F)nc3ccccc3c2=O)cc1	6	4
Cc1nc(SCC(=O)NCC(O)c2ccccc2Cl)n[nH]1 (centres undefined)	7	12
NC(=O)c1ccc(=O)n(Cc2cnn(-c3ccccc3)c2)n1	2	-1
COc1ccccc1N(C)Cc1c(C)nn(C)c1Cl	-5	-10
COc1ccccc1N1CCN(C(=O)c2cn(C(C)C)cc(C(=O)NCc3ccccc3)c2=O)CC1	3	-1
Cc1n[nH]c(C)c1CC(=O)O	15	24
CCOC(=O)Cc1nnc(NC(=O)CCc2ccccc2)s1	8	7
CCN1CCOC(CNCc2c(Cl)nc3ccccn23)C1 (centres undefined)	7	7
COC1CCCN(Cc2cn[nH]c2-c2ccc(-c3ccccc3)cc2)C1 (centres undefined)	12	4
O=c1ccc(-c2cccs2)nn1Cc1ccccc1	6	0
Cc1cc(C)cc(-n2ncc3c2CCCC3NC(=O)CCc2scnc2C)c1 (centres undefined)	6	7
Cc1ncc2c(c1CNC(=O)Cc1cccs1)CCN(C(=O)c1ccc(N3CCCC3=O)cc1)C2	9	9
CC(C)Cn1ccnc1CNC(=O)N1CCC(N2CCCC2)C1 (centres undefined)	1	0
CCN(CC)C1CCN(C(=O)c2cc(NS(=O)(=O)CC)cc3nc(-c4ccccc4)n(C)c23)C1 (centres undefined)	-4	-5
COc1ccc(Cl)c2sc(N(CCCN(C)C)C(=O)C3=COCCO3)nc12	11	6
CC(OC(=O)C(C)N1CCOCC1)C(=O)Nc1cccc(F)c1 (centres undefined)	7	4
CCN(CC)C(=O)CSc1nnc(-c2ccccc2)c2sc(C)nc12	3	0
O=C(O)c1cc2ncc(CCO)cn2n1	-5	-11
CC1=CC(C)(C)N2C(=O)C3(c4ccc(O)cc4OC(=N)C3C#N)c3c(C)c(C)cc1c32 (centres undefined)	12	0
CC(C)CN1CCOC(CSc2nnc(-c3nn(Cc4ccccc4)c(=O)c4ccccc34)o2)C1 (centres undefined)	-3	-6
CCn1nc(C)c(/C=C/c2nc3ccccc3s2)c1C	8	5
CCCN(CCC)c1nc2ccccc2c2nc(C)nn12	-6	-5
Cc1nc2c(=O)n(Cc3ccccc3F)nc(-c3ccccc3)c2s1	7	6
CC(C)Nc1ccc(C(=O)Nc2ccc(C(C)(C)C)cc2)cn1	16	13
CCCCn1c(=O)c2oc3ccccc3c2n(CC(=O)Nc2ccc(C(C)C)cc2)c1=O	5	8
COc1nc(-c2ccc(Cl)c(Cl)c2)n(-c2ccc(NC(=O)c3ccco3)cc2)n1	17	16
CC(=O)Nc1ccc(NC(C)C(=O)Nc2ccc(C(F)(F)F)cc2)cc1 (centres undefined)	-1	-4
O=C(c1ccc(-c2ccccc2)[nH]1)N1CCC(O)(CO)CC1	15	5

Random excerpt: 5 entries already listed, in no set order.
SMILES	NPYLR7 agonist	NPYLR7 agonist max-min
CC(=O)Nc1ccc(NC(C)C(=O)Nc2ccc(C(F)(F)F)cc2)cc1 (centres undefined)	-1	-4
CCCN(CCC)c1nc2ccccc2c2nc(C)nn12	-6	-5
CC(C)Nc1ccc(C(=O)Nc2ccc(C(C)(C)C)cc2)cn1	16	13
O=C(c1ccc(-c2ccccc2)[nH]1)N1CCC(O)(CO)CC1	15	5
O=C(O)c1cc2ncc(CCO)cn2n1	-5	-11

Continuation:
SMILES	NPYLR7 agonist	NPYLR7 agonist max-min
C#CCN(C)C(=O)c1ccc(-c2cccc(C(F)(F)F)c2)s1	17	31
CC(=O)Nc1nc(SCC(=O)Nc2nccs2)[nH]c(=O)c1NC(=O)c1cccs1	-2	-1
CCCCc1nc(CN(C)C2CCCCC2S(C)(=O)=O)no1 (centres undefined)	3	3
Cc1cc(C(=O)CCC(=O)N2CCN(c3ccccc3Cl)CC2)c(C)s1	4	3
O=C1C(C(c2ccco2)N2CCN(c3ccccc3F)CC2)Sc2ncnn21 (centres undefined)	3	2
O=[N+]([O-])c1ccccc1OCCNCc1ccco1	-2	23
O=C(NC1(c2ccccc2)CCC1)C1=NOC(c2ccccc2)C1 (centres undefined)	7	6
CCOc1ccccc1CN(CC)Cc1coc2ccccc2c1=O	8	6
O=C(NC1CC(=O)N(CCCc2ccccc2)C1)C1CCOCC1 (centres undefined)	1	-3
COc1ccc(S(=O)(=O)N2CCCC2CNC(=O)C(=O)NCCc2ccc(Cl)cc2)cc1 (centres undefined)	8	2
COC1(OC)N=C(N)C2(C#N)C(c3ccc(OCc4ccccc4)cc3)C12C#N (centres undefined)	-4	-9
CCN1CCN(Cc2cc(C(=O)NCC3C4CC5CC(C4)CC3C5)no2)CC1 (centres undefined)	-2	2
Cc1cc(OCC2CN(C(=O)c3cccc(C(C)C#N)c3)CCO2)ccc1Cl (centres undefined)	-17	-19
CC1(Cc2ccc(F)cc2)C(=O)Nc2cc(-c3ccc(F)cc3F)ccc21 (centres undefined)	0	4
CCC1(C)N=C(Nc2cccc(Cl)c2)OC1=O (centres undefined)	-1	-2
O=C1OC23CCC(CC2)N(C(=O)c2ncoc2-c2ccccc2)C3CN1Cc1ccccc1 (centres undefined)	18	22
Cc1cc(C(=O)Nc2nc3c(C)c(Cl)ccc3s2)on1	5	8
Cc1cccc(=O)n1CCCNC(=O)c1cn[nH]n1	4	-3
CN1C(=O)NC(c2ccsc2)C2=C1CN(CCN1CCOCC1)C2=O (centres undefined)	-3	6
Cn1c(=O)[nH]c(=O)c2c1nc(CN(Cc1ccccc1)Cc1ccccc1)n2Cc1ccc(F)cc1	5	3
c1ccc2c(-c3cnc4ccc(NCc5ccc6c(c5)OCO6)nn34)cccc2c1	-4	-8
COc1ccc2cc(C(=O)C3CCCN(CCn4cc[nH]c4=O)C3)ccc2c1 (centres undefined)	5	3
O=C(c1ccc(CSc2nnc(-c3ccccc3[N+](=O)[O-])n2Cc2ccccc2)cc1)N1CCOCC1	3	6
CN(CCc1nc2ccc(F)cc2[nH]1)C(=O)c1cn(CC2CCCCC2)nn1	0	-11

A portion taken from the entries so far, for reference:
SMILES	NPYLR7 agonist	NPYLR7 agonist max-min
COc1ccc2cc(C(=O)C3CCCN(CCn4cc[nH]c4=O)C3)ccc2c1 (centres undefined)	5	3
O=C(c1ccc(CSc2nnc(-c3ccccc3[N+](=O)[O-])n2Cc2ccccc2)cc1)N1CCOCC1	3	6
CN(CCc1nc2ccc(F)cc2[nH]1)C(=O)c1cn(CC2CCCCC2)nn1	0	-11

(list continues)
SMILES	NPYLR7 agonist	NPYLR7 agonist max-min
COc1cc(OC)nc(C(NC(=O)C2CCN(CCOc3ccc(Br)cc3)CC2)c2ccccc2C)n1 (centres undefined)	2	-1
Cc1ccc2nc3c(c(C(=O)OC4CCOC4=O)c2c1)CCCC3 (centres undefined)	-5	-5
COc1ccccc1-n1c(-c2ccccc2)cc(C(=O)Nc2ccc(F)cc2)c1C	1	15
CCOC(=O)c1c(NC(C)=O)sc(C(=O)NC2CCCC2)c1C	17	18
CN(Cc1cc2c(cc1O)OCO2)Cc1nccn1C(F)F	0	-2
COC(=O)c1ccc(CN2CCN(c3ccc(F)cc3F)C(=O)C2C)cc1 (centres undefined)	1	13
O=C(Cn1c(=O)oc2cc(Cl)ccc21)N1CCN(S(=O)(=O)c2cccc(F)c2)CC1	9	4
CC(c1ccccc1)N(CC1CC1)C(=O)c1cc(C(N)=O)c[nH]1 (centres undefined)	-2	-4
O=C(O)C1COC2(CCN(C(=O)c3cccc(F)c3)CC2)N1C(=O)c1ccco1 (centres undefined)	10	20
O=C(Cn1cc2ccccc2n1)N1CCCC(Nc2cccc(F)c2)C1 (centres undefined)	16	8
COc1ccc(C(=O)N2CCN(c3ccc(-n4cccn4)nn3)CC2)cc1OC	7	5
COc1cccc(/C=N\NC(=O)CSc2nc3ccccc3s2)c1OC	17	21

Looked up above:
O=C(O)C1COC2(CCN(C(=O)c3cccc(F)c3)CC2)N1C(=O)c1ccco1 (centres undefined) – NPYLR7 agonist = 10
Cc1ccc2nc3c(c(C(=O)OC4CCOC4=O)c2c1)CCCC3 (centres undefined) – NPYLR7 agonist max-min = -5

Following part.
SMILES	NPYLR7 agonist	NPYLR7 agonist max-min
CCOC(=O)COc1cc(C)c2c(=O)c(-c3nc(C)cs3)coc2c1	-9	-15
COc1cccc(CSc2nnc(CNC(=O)Nc3ccc(F)cc3F)n2-c2cc(Cl)ccc2C)c1	16	19
CCC(=O)N1CCN(c2ncnc3c2nnn3Cc2ccccc2)CC1	-16	-25
COC(=O)c1ccc(N2C(=O)CSC2c2ccc(Cl)cc2)cc1 (centres undefined)	-4	-8
COc1ccccc1-n1ncc2c(C(C)C)nnc(SCC(=O)NCc3ccc4c(c3)OCO4)c21	-10	-17
Cc1c(CN(C)C(=O)C(=O)N2CCCCCC2)cnn1C	1	2
COC(=O)C(CC(C)C)NC(=O)Cc1ccc(OC)c(F)c1 (centres undefined)	8	4
Cc1cc(N(C)C2CCCCC2)nc(SCc2cccc(C(=O)NCc3ccncc3)c2)n1	12	8
Fc1c(F)c(F)c(NC2=NCCCCC2)c(F)c1F	0	0
COc1cc(C2Nc3ccccc3C(=O)N2c2cccc(C)c2)ccc1OCC(N)=O (centres undefined)	-4	-3
O=C(CCc1ccccc1)N(CCCN1CCOCC1)c1nc2ccc(F)cc2s1	0	-5
O=C(NC1(C(F)(F)F)N=C(c2ccccc2)NC1=O)C1CCCCC1 (centres undefined)	2	0
COc1ccc(-c2noc(CN(C)Cc3ccc(OC)c4ncccc34)n2)c(OC)c1OC	14	7
COc1ccc(N=c2oc3ccc([N+](=O)[O-])cc3cc2C(=O)NC(C)=O)cc1	-8	-15
O=C(NCCc1nc2ccccc2n1CCC1CCCCC1)c1ccco1	-2	1
Cc1cccc(C2c3[nH]c4ccccc4c3CCN2C(=O)Cn2cnc3ccccc32)n1 (centres undefined)	2&-4	-5&-7
Cc1cc(Oc2ccc3c(-c4ccccn4)noc3n2)ccc1F	2	0
O=C(NNC(=O)c1ccc(F)cc1F)c1ccc(F)cc1	0	-1
CCc1nc2ccc(C(=O)Nc3ccc(OC)c(OC)c3)cn2c1N(CC)CCOC	-6	-11
Cc1nc2sccn2c(=O)c1NC(=O)c1ccc2c(c1)OCO2	16	6
CC(=O)Nc1ccc(SCC(=O)N2CCCc3ccccc32)nn1	1	3
O=C(Nc1ccc(-c2nc3ccccc3o2)cc1)c1ccccc1F	-6	-11
CCCCOc1ccc(C(=O)Nn2cnc3c(cnn3-c3ccc(C)cc3)c2=O)cc1	-1	-4
CC(C)Cc1nc(N2CCN(C(=O)c3cccc(Cl)c3)CC2)c2c(-c3cccc(C(F)(F)F)c3)noc2n1	13	5
CCCN1CCC(NCc2ccc(-c3cccc(Cl)c3Cl)o2)CC1	-2	-3
CC(=O)Nc1cccc(NC(=O)CCN2CCC[C@H]2CO)c1	14	5
N#Cc1ccc(CN2CCCN(c3nc(C4CC4)ns3)CC2)cc1	3	0
Cc1ccc(N2CCC(C(=O)O)C2=O)cc1 (centres undefined)	2	1
O=C(Nc1cccc(N2CCOC2=O)c1)N(CCN1CCCC1)Cc1ccccc1	-8	-8
O=C(NC(c1ccc(F)cc1)c1ccc2ccccc2n1)C1CCN(Cc2ccc3c(c2)OCO3)CC1 (centres undefined)	-11	-14
CCS(=O)(=O)NCC1CN(c2ccc(C)cc2)C(=O)O1 (centres undefined)	4	1
Cc1cc(C(=O)NCC2Cc3cc(F)ccc3O2)ccc1Br (centres undefined)	16	26
O=C(O)c1cc(Cl)cc(Cl)c1I	2	0
O=C(NCC1CCS(=O)(=O)C1)c1ccc2oc(CCCc3ccccc3)nc2c1 (centres undefined)	3	3
CCc1sc(C(=O)NCC(O)COc2cccc(C(F)(F)F)c2)cc1C (centres undefined)	0	14
COc1ccccc1C(=O)NNC(=O)CCN1C(=O)/C(=C/c2ccc(C)cc2)SC1=S	-1	-8
CC1CCCCN1c1cc(C(F)(F)F)nc(SCc2ccc(C(=O)NCc3ccc4c(c3)OCO4)cc2)n1 (centres undefined)	17	15
CCOC(=O)c1cc(-c2cccc(NC(=O)c3ncoc3-c3ccc(OC)cc3)c2)n(-c2ccccn2)n1	4	0
Cc1cc(C)c(CCNC(=O)C(C)c2c(C)nn(C)c2C)c(C)c1 (centres undefined)	-2	-4
Cc1cccc(Cn2c(=O)c3c(nc4n(CCOCCO)c(C)c(C)n34)n(C)c2=O)c1	-9	-9
S=c1[nH]c2ccccc2n1C1CCCCC1	-5&-8	-6&-13
Cc1c(C(=O)N2CCN(C)CC2)[nH]c2ccc(OCc3ccccc3)cc12	1	0
CCC1=C(C(=O)OC)C(c2ccc([N+](=O)[O-])cc2)NC(=S)N1 (centres undefined)	2	-2

Gathered by group: the compounds so far containing a cyano group
SMILES	NPYLR7 agonist	NPYLR7 agonist max-min
CC1=CC(C)(C)N2C(=O)C3(c4ccc(O)cc4OC(=N)C3C#N)c3c(C)c(C)cc1c32 (centres undefined)	12	0
COC1(OC)N=C(N)C2(C#N)C(c3ccc(OCc4ccccc4)cc3)C12C#N (centres undefined)	-4	-9
Cc1cc(OCC2CN(C(=O)c3cccc(C(C)C#N)c3)CCO2)ccc1Cl (centres undefined)	-17	-19
N#Cc1ccc(CN2CCCN(c3nc(C4CC4)ns3)CC2)cc1	3	0

Only part of the results is shown. The share of hits here may be higher or lower than overall.
